Screening data from PubChem.
MgrA-DNA mod – S. aureus MgrA-DNA binding modulation; fluorescence polarization; inhibition, %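 (about 10 µg/mL by stock and volumes)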; hit rate 0.13% among 84,000; AID 602314;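 active means above 50% in either of two replicates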;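 further: 0% = protein plus DNA without compound and 100% = DNA alone without protein; higher means less MgrA bound to DNA so lower polarization; one replicate is shown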
Sa helicase inh – S. aureus DNA helicase inhibition; purified S. aureus helicase, fluorescence unwinding assay; about half of the hits fall short of the stated cut; inhibition, %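 (tested at about 80 µM)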; hit rate 0.05% among 120,000; AID 485395;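 active means both duplicates at 50% or more, or one of them with a favoured structure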;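 further: 0% = mean of negative control wells and 100% = mean of positive control wells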
Active calls of the source: *; / = no result given.

Results follow in this order: MgrA-DNA mod | Sa helicase inh
> O=C(Nc1ccc(F)c(F)c1)c1nc2ncccn2n1
→ 0.7 | 2
> CCOC(=O)C1=NN(c2ccccc2)C2(C(=O)c3ccccc3C2=O)C1c1ccc(C)cc1 (stereo not drawn)
→ 0.2 | /
> O=C(O)CC1(O)CC(=O)N(c2ccccc2)C1=O (stereo not drawn)
→ -1.4 | 0
> COc1ccc(CNc2ccccn2)cc1OC
→ -1.7 | 7
> CN(C)CCC(=O)c1ccco1
→ -4.8 | 12
> COC(=O)N1CCCc2cc(C)ccc21
→ 10 | 13
> Cc1ccc(N2C(=O)CC(c3ccc4c(c3)OCO4)C3=C2CC(C)(C)CC3=O)cc1 (stereo not drawn)
→ 2.6 | 6
> COc1ccc(-c2ccc(SC)nn2)cc1OC
→ / | 4
> Cn1cc(S(=O)(=O)N2CCOCC2)cc1C(=O)N1CCN(CCOc2ccc(Cl)cc2)CC1
→ / | 24
> CC(=O)N1CCOc2ccc(S(=O)(=O)N3CCC(C(=O)NCc4ccc(Cl)cc4)CC3)cc21
→ / | 21
> CCC(C)(C)NC(=O)Cc1c[nH]c2ccccc12
→ / | 2
> COc1ccc2c(c1)nc(SCC(C)O)n2C (stereo not drawn)
→ 0.5 | -24
> Cc1ccc(Cl)cc1NC(=O)COC(=O)Cc1ccc(Cl)cc1
→ -0.1 | -14
> COc1ccccc1/C=C1\C(=O)/C(=C/c2ccccc2OC)C2CCC1N2C
→ / | 35
> Cc1ccc(-c2ccc(/C=N/n3cnnc3)o2)cc1
→ / | -5
> CC(C)n1c(SCc2ccccc2)nnc1C1CCCN(CC(N)=O)C1 (stereo not drawn)
→ 1.1 | -8
> O=c1[nH]c(O)c(/C=N/N2CCOCC2)c(=O)[nH]1
→ / | -3
> CSc1nnc(-c2cc(Br)ccc2NC(C)=O)c(=O)[nH]1
→ / | 9
> CCOc1cc(C(=O)Oc2cc(=O)oc3ccccc23)cc(OCC)c1OCC
→ / | 5
> C=CCn1c(NC)nc2c1c(=O)[nH]c(=O)n2C
→ 3.4 | -9
> O=C(O)c1cccc(Cl)c1C(=O)O
→ -0.8 | /
> CN1CCC(N2CCCC(C(N)=O)C2)CC1 (stereo not drawn)
→ 2.4 | 4
> CN(C)C=Nc1nc2ccccc2nc1Cl
→ / | 5
> COc1ccc(C2C=C(c3ccccc3)NC(=S)S2)cc1OC (stereo not drawn)
→ 1.6 | /
> CC(C)(C)c1ccc(C(=O)NN)s1
→ 0.1 | /
> Cc1cccc(-c2nc3ccccc3c(=O)[nH]2)c1
→ / | -8
> CN(C(=O)c1c2c(nc3ccccc13)C(=O)N(C1CCCCC1)C2)C1CCCCC1
→ / | -5
> CCCCSc1nnc2c(n1)OC(c1c(C)[nH]n(-c3ccccc3)c1=O)Nc1ccccc1-2 (stereo not drawn)
→ -1.4 | /
> CCOC(=O)c1c(-c2ccccc2)csc1NC(=O)/C=C/c1ccco1
→ / | -11
> CC(=O)Nc1nc2ccccc2n1CCN1CCCC1
→ / | -15

An excerpt from above in order of molecular weight, descending.
Results follow in this order: MgrA-DNA mod | Sa helicase inh
> CC(C)n1c(SCc2ccccc2)nnc1C1CCCN(CC(N)=O)C1 (stereo not drawn)
→ 1.1 | -8
> CCOC(=O)c1c(-c2ccccc2)csc1NC(=O)/C=C/c1ccco1
→ / | -11
> CC(C)(C)c1ccc(C(=O)NN)s1
→ 0.1 | /

Returning to the listing, repeating the 3 entries before the break.
Results follow in this order: MgrA-DNA mod | Sa helicase inh
> CCCCSc1nnc2c(n1)OC(c1c(C)[nH]n(-c3ccccc3)c1=O)Nc1ccccc1-2 (stereo not drawn)
→ -1.4 | /
> CCOC(=O)c1c(-c2ccccc2)csc1NC(=O)/C=C/c1ccco1
→ / | -11
> CC(=O)Nc1nc2ccccc2n1CCN1CCCC1
→ / | -15
> COc1ccc(-c2cc(C(F)(F)F)n3nc(C(=O)Nc4ccc5c(c4)OCO5)cc3n2)cc1OC
→ -0.2 | /
> COc1ccc(C=Nc2ccc(O)cc2)cc1
→ 7.5 | /
> N#CCOc1ncn(-c2ccccc2)n1
→ 1.7 | /
> CNC(=O)CN1CCC(c2nc3ccccc3[nH]2)CC1
→ / | 4
> CCc1ccc(OC(=O)c2ccc(Br)o2)cc1
→ / | -3
> Cc1cccc(Nc2nc3nonc3nc2NC(C)C)c1C
→ -0.4 | /
> CCOc1ccc(C(CC(=O)O)NC(C)=O)cc1 (stereo not drawn)
→ / | 19
> COc1ccc(N2CCN(CCCNS(=O)(=O)c3c(C)noc3C)CC2)cc1
→ -0.3 | -1
> CCn1c(NC(=O)c2cccc(Cn3cc(Cl)cn3)c2)nc2ccccc21
→ / | 7
> COc1ccc(N=Nc2c(-c3ccc(OC)cc3)[nH]oc2=O)cc1
→ 7.6 | /
> Cc1ccc(S(=O)(=O)N2CCN(C(=O)COC(=O)c3ccccc3C)CC2)c(C)c1
→ / | 4
> CC(C)n1nc(C(N)=O)c2ccccc2c1=O
→ / | 11
> Cn1c(=O)c2nc(-c3nc4ccccc4[nH]3)c(N)nc2n(C)c1=O
→ / | -1
> COc1ccc(NS(=O)(=O)c2cc(-c3cc(C)[nH]n3)ccc2C)cc1OC
→ / | -16
> CC(c1ccccc1)N(C)CN1C(=O)c2ccccc2C1=O (stereo not drawn)
→ / | 8
> Fc1ccc(C(NC2CCCC2)c2nnc(-c3ccccc3)o2)cc1 (stereo not drawn)
→ / | 0
> COc1ccc2c(c1)nc(SCC(=O)C(C)(C)C)n2C
→ 0.7 | -13
> Cc1nc(NCCCCCO)c2nnn(Cc3ccc(F)cc3)c2n1
→ 0.8 | 1
> COc1ccc(-c2cc(C(=O)NC(Cc3c[nH]c4ccccc34)C(=O)O)c(C)o2)cc1OC (stereo not drawn)
→ / | 25
> Cc1ccccc1NC(=S)N(CCN(C)C)C(C)c1ccncc1 (stereo not drawn)
→ / | -1
> Cc1cccc(-n2c(SCC(=O)NCc3ccccc3)nc3c(oc4ccccc43)c2=O)c1
→ -0.5 | 11
> O=C(c1ccccc1)c1ccccc1C(=O)N1CCc2ccccc2C1
→ -0.8 | 5
> Cn1c(=O)c(C(=O)CNc2ccc(S(=O)(=O)N3CCCC3)cc2)c(N)n(Cc2ccccc2)c1=O
→ / | 11
> CC1(C(=O)NC2CCCCC2)CCC(=O)N1CCc1ccccc1 (stereo not drawn)
→ -0.1 | 1
> COC(=O)c1cc(C)sc1NC(=S)NCCn1cc(Cl)cn1
→ 16 | 10
> Cc1occc1C(=O)N1CCN(S(=O)(=O)c2ccc(F)cc2)CC1
→ / | 12
> OCCNCC12CC3CC(CC(C3)C1)C2
→ -1.4 | 0
> CC(C)c1ccc(O)c(N)c1
→ / | -15
> CC1(C)Cc2cccc(C(=O)Nc3ccc(-c4csnn4)cc3)c2O1
→ 0.7 | /
> CC(C)Cc1nc2sc3c(c2c(=O)o1)CCCCC3
→ 0.8 | 6
> CC(C(=O)Nc1ccc(S(=O)(=O)N2CCCC2)cc1)N1CCN(c2ccccc2O)CC1 (stereo not drawn)
→ / | 0
> O=C(NNC(=S)Nc1ccc(F)cc1)C(O)(c1ccccc1)c1ccccc1
→ 4.3 | /
> CN1C(=O)C2C(N=CN2CCCO)N(C)C1=O (stereo not drawn)
→ -2.0 | 9
> O=C1CCCC1Sc1nnnn1-c1ccccc1 (stereo not drawn)
→ / | 4
> Fc1cc(Br)c(F)cc1Br
→ -1.4 | /
> Clc1ccc(NCc2nnc(-c3ccccc3)o2)cc1
→ / | 3
> O=C(OC1CCCCc2cccnc21)c1ccc(Cl)cc1 (stereo not drawn)
→ -1.9 | /
> Cc1nn(-c2ccccc2Cl)c(Cl)c1C=Nc1ccc2[nH]c(=O)[nH]c2c1
→ / | 9
> Cc1cccc2nc(-c3cccnc3Oc3ccccc3)oc(=O)c12
→ -2.2 | /
> CC(C)(C)OC(=O)N1CCCC(C(=O)CC#N)C1 (stereo not drawn)
→ 0.4 | 1
> FC(F)(F)c1nc(Cl)c2ccccc2n1
→ / | -1
> CCC(Sc1ccc(Cl)cc1)C(=O)Nc1nnc(C)s1 (stereo not drawn)
→ / | 13
> Cc1cccc(C(=O)NCc2nc(-c3ccccc3Cl)no2)c1
→ / | 15
> CCN1c2ccccc2-c2nc3ccccc3n2C1c1ccsc1 (stereo not drawn)
→ / | 29
> CCC(C)NC(=O)C1CCN(S(=O)(=O)N2CCC3(CC2)OCCO3)CC1 (stereo not drawn)
→ / | -8
> O=C(c1ccccc1)c1cnc2ccccn2c1=O
→ -2.2 | /
> CCOC(=O)C(N)C(O)c1ccccc1 (stereo not drawn)
→ / | -11
> COCCNC(=O)c1ccc2c(c1)C(=O)N(C)C2=O
→ 1.4 | 7
> CCN(CC)C1=NC(=O)C(CC(=O)Nc2cccc(C(=O)NCc3ccco3)c2)S1 (stereo not drawn)
→ / | 18
> COC(=O)CSc1nnc2n1C(C)(C)Cc1ccccc1-2
→ 1.9 | 7
> Cc1ccc(-n2c(=O)oc3ccc(Cl)cc3c2=O)cc1Cl
→ 0.6 | 6
> COc1ccccc1NC(=O)CN(Cc1ccco1)C(=S)NCc1ccccc1
→ / | 9
> COc1ccc(-c2noc(=O)n2CCCC#N)cc1OC
→ 2.1 | -13
> CCN(CC)CCn1c(NCc2ccc(C)o2)nc2ccccc21
→ -0.7 | -4
> CC(C)Nc1nn(CN2CCN(C(=O)c3ccccc3)CC2)c(=S)s1
→ / | -3
> C/C=C/c1c(C)nc2sc(C#N)c(N)c2c1C
→ -2.5 | -2
> O=C(NC1CCCC1)C1CCCN(S(=O)(=O)c2ccc3[nH]c(=O)ccc3c2)C1 (stereo not drawn)
→ / | -26
> CCc1ccn2cc(-c3ccc(-c4ccccn4)s3)nc2c1
→ -2.9 | /
> CC(C)n1c(SCC(=O)N(Cc2ccccc2)C(C)(C)C)nc2c1c(=O)n(C)c(=O)n2C
→ -0.7 | 2
> O=C1CC(c2ccccc2)CC(O)=C1C=NCc1cccnc1 (stereo not drawn)
→ -1.3 | 11

Taken from above:
Result of C/C=C/c1c(C)nc2sc(C#N)c(N)c2c1C in Sa helicase inh: -2
Result of Fc1cc(Br)c(F)cc1Br in MgrA-DNA mod: -1.4

Back to the main list with the 3 entries that preceded the break.
Results follow in this order: MgrA-DNA mod | Sa helicase inh
> CCc1ccn2cc(-c3ccc(-c4ccccn4)s3)nc2c1
→ -2.9 | /
> CC(C)n1c(SCC(=O)N(Cc2ccccc2)C(C)(C)C)nc2c1c(=O)n(C)c(=O)n2C
→ -0.7 | 2
> O=C1CC(c2ccccc2)CC(O)=C1C=NCc1cccnc1 (stereo not drawn)
→ -1.3 | 11
> CC1=C(C(=O)Nc2ccccc2C(=O)NCc2ccc3c(c2)OCO3)SCCO1
→ / | 0
> COc1ccc(/C=C/C(=O)N2c3ccccc3COC2c2ccccc2)cc1 (stereo not drawn)
→ 0.3 | 8
> O=C1OCc2cc(-n3cnnn3)ccc21
→ -2.0 | -3
> CC(C(=O)O)N1C(=O)/C(=C/c2ccccc2Cl)SC1=S (stereo not drawn)
→ / | -12
> CSc1nn(-c2ccccc2)cc1C(=O)N1CCCC1
→ 1.7 | /
> Cc1cc(C(=O)COC(=O)CCc2nc3ccccc3c(=O)[nH]2)c(C)n1C
→ / | -5
> O=C(O)CN1C(=O)/C(=C/C=C/c2ccccc2)SC1=S
→ / | -5
> Cc1cc(NNS(=O)(=O)c2ccc(OC(F)(F)F)cc2)n2ncnc2n1
→ / | -6
> O=C(CN1C(=O)NC(Cc2ccccc2)C1=O)c1ccc(S(=O)(=O)N2CCCC2)cc1 (stereo not drawn)
→ / | -5
> CNc1cncc(C(=O)O)c1
→ / | 10
> C/C(=N\NC(=O)c1cc2ccccc2cc1O)c1ccc(N)cc1
→ 2.4 | 3
> O=C(Nc1ccccn1)c1ccc(Br)o1
→ 1.3 | 1
> CC(=O)N/N=C(/C)c1ccccc1
→ -3.7 | 16
> CN(C)c1nc2c(c(=O)n(C)c(=O)n2C)n1CC(=O)c1ccccc1
→ -0.3 | -15
> COC(=O)c1ccc(/C=N/c2c(-c3ccco3)nc3ccccn23)cc1
→ / | 10
> Cc1c[nH]c2cccc(OCC(O)CN3CCN(C(c4ccccc4)c4ccccc4)CC3)c12 (stereo not drawn)
→ -0.9 | 3
> C(/C=C/c1ccco1)=NN1CCN(C2c3ccccc3-c3ccccc32)CC1
→ 6.6 | 12
> CC1=NN(c2ccc(Cl)cc2)C(=O)C1CCO (stereo not drawn)
→ -3.1 | /
> Cc1ccc(NCCOc2ccccc2)c(C)c1
→ 3.6 | 2
> O=C(NCCO)c1cc2ccccc2oc1=O
→ 2.6 | 6
> CC(C)c1nc2sc3c(ncn4ncnc34)c2c2c1CCCC2
→ / | 15
> Cc1nn(C2CCS(=O)(=O)C2)c(Cl)c1/C=C1\SC(=S)NC1=O (stereo not drawn)
→ / | -7
> CCOC(=O)C1CCN(C(c2cccnc2)c2c(C)[nH]c3ccccc23)CC1 (stereo not drawn)
→ / | 4
> CCc1cccc(CC)c1NC(=O)CC#N
→ 2.2 | -23
> COC(=O)CNC(=O)c1cc(OC)c(OC)c(OC)c1
→ -1.6 | 4
> NNc1nnc2c(n1)[nH]c1ccccc12
→ -1.0 | 13
> O=C(OCC(=O)N(Cc1ccccc1)C1CCS(=O)(=O)C1)c1ccccc1C(F)(F)F (stereo not drawn)
→ / | -9
> CSc1nsc(SC)c1C(N)=O
→ 3.3 | /
> O=S(=O)(c1cccc2cccnc12)N1CCc2ccccc21
→ / | -3
> CCSc1nnc(-c2cccc(S(=O)(=O)N(C)C)c2)n1-c1cccc(C)c1
→ / | 5
> CCOCCOC(=O)C1=C(C)NC2=C(C(=O)CC(c3ccc(OC)cc3)C2)C1c1ccc(Br)cc1 (stereo not drawn)
→ 0.7 | /
> CCOC(=O)C1=C(CCl)OC(N)=C(C#N)C1c1ccccc1F (stereo not drawn)
→ 2.0 | /
> O=C(NCc1cccc(Cl)c1)c1cnc2ccccn2c1=O
→ -2.6 | 10
> Cc1ccc(NC(=O)CN2C(=O)S/C(=C\c3ccc(C)o3)C2=O)cc1
→ -2.2 | -12
> OC(COCc1ccc(Cl)cc1)CN1CCCCCC1 (stereo not drawn)
→ / | 11

Not all compounds are listed (hit frequency here may not be typical).
